H5N1 antiviral: antiviral screen in MDCK cells, H5N1 avian flu. AID 740. inhibition, % at 50 µM. cytopathic effect, luminescence, 72 h; stronger effect = higher value; no value below 0 was filed and about half of the inactive calls have no number; reference of the scale not given here. actives 0.07% (n = 96,000); in the data active = inhibition above about 25%
* marks the source's active call; other numbers are inactive results; i = inactive. Not all compounds are listed (hit frequency here may not be typical).

SMILES	H5N1 antiviral
Cc1occc1-c1nnc(SCC(=O)c2c[nH]c3ccccc23)n1C	0.1
COc1cccc(NC(=O)CSc2nnc(Cc3cccs3)n2-c2ccc(C)cc2)c1	2.9
O=c1ccc(Oc2nc(N3CCCCC3)nc(N3CCCCC3)n2)n[nH]1	0.5
O=C(O)CCC(=O)Nc1ccc(N2CCOCC2)cc1	0.4
O=C1C2C3C=CC(C3)C2C(=O)N1c1n[nH]c(-c2cccnc2)n1 (stereo unspecified)	i
COc1ccc(-c2nc3n(n2)C(=O)CC(c2ccco2)S3)cc1 (stereo unspecified)	i
CC(=O)NS(=O)(=O)c1cccnc1Nc1ccc(Cl)cc1	1.3
Cc1ccc2oc(=O)c3cnn(CC(=O)N4CCN(c5ccccc5)CC4)c3c2c1	1.7
CCCC(=O)c1cc(F)c(N2CCOCC2)cc1C	1.0
Cc1ccc(CNc2nc(N)c([N+](=O)[O-])c(Nc3ccc(F)cc3)n2)cc1	1.2
CCN1CCC(C(N)=O)CC1	i
Cn1c(=O)c2c(nc(CN3CCC(Cc4ccccc4)CC3)n2CCN2CCOCC2)n(C)c1=O	0.8
Cc1c(C(=O)NCc2cccnc2)oc2ccccc12	i
CC(=O)N1CCN(c2ccc(NCc3cccs3)cc2)CC1	0.6
CC1CCC(NCc2ccco2)CC1 (stereo unspecified)	i

Filtered by structure: the compounds so far containing an aryl thioether with sulfur outside any ring (two)
SMILES	H5N1 antiviral
Cc1occc1-c1nnc(SCC(=O)c2c[nH]c3ccccc23)n1C	0.1
COc1cccc(NC(=O)CSc2nnc(Cc3cccs3)n2-c2ccc(C)cc2)c1	2.9

Look-ups from the list:
COc1cccc(NC(=O)CSc2nnc(Cc3cccs3)n2-c2ccc(C)cc2)c1 in H5N1 antiviral: 2.9
O=c1ccc(Oc2nc(N3CCCCC3)nc(N3CCCCC3)n2)n[nH]1 in H5N1 antiviral: 0.5

For convenience, some entries already given.
SMILES	H5N1 antiviral
Cc1occc1-c1nnc(SCC(=O)c2c[nH]c3ccccc23)n1C	0.1
COc1cccc(NC(=O)CSc2nnc(Cc3cccs3)n2-c2ccc(C)cc2)c1	2.9
O=c1ccc(Oc2nc(N3CCCCC3)nc(N3CCCCC3)n2)n[nH]1	0.5
O=C(O)CCC(=O)Nc1ccc(N2CCOCC2)cc1	0.4
O=C1C2C3C=CC(C3)C2C(=O)N1c1n[nH]c(-c2cccnc2)n1 (stereo unspecified)	i

Carrying on.
SMILES	H5N1 antiviral
COc1cccc(C2N(c3cccc(Cl)c3)C(=O)C3CCCN32)c1 (stereo unspecified)	i
O=C(O)CCCCCNS(=O)(=O)c1ccc(Cl)cc1	i
Cc1ccc(CCC2C3=C(CCCC3=O)OC3=C2C(=O)CCC3)cc1	1.5
CC(=O)NC(Cc1c[nH]c2ccccc12)C(=O)OCC(=O)Nc1cc(C)on1 (stereo unspecified)	i
CCn1c(COc2cccc3ccccc23)nnc1SCC(N)=O	0.8
Clc1ccc(Cl)c(-c2ccc(/C=N/c3ncn[nH]3)o2)c1	i
CC(C)CN(C(=O)COC(=O)Cn1cnc2ccccc2c1=O)C1CCS(=O)(=O)C1 (stereo unspecified)	0.4
CC1=C(C(N)=O)C(c2ccco2)C(C(N)=O)=C(C)N1	i
N#Cc1nc(COc2ccc(Cl)cc2)oc1NCc1ccc2c(c1)OCO2	i
Cc1cccc(NC(=O)CCN2CCOCC2)c1	0.1
CC(=O)Nc1nc(CCC(C)C)cc2c1c(=O)oc1ccccc12	0.6
CCc1c(C)nc2ncnn2c1N1CCCC(C(=O)Nc2cc(F)ccc2C)C1 (stereo unspecified)	i
O=C(Nc1cccc2cccnc12)c1ccc(Br)o1	i
Cc1noc(C)c1COc1cccc(C(=O)OCCOc2ccc(F)cc2)c1	i
COc1cc2c(C(=O)NCCCN3CC(C)CC(C)C3)cn(CC(C)C)c(=O)c2cc1OC (stereo unspecified)	i
CCc1nnc(NC(=O)c2cnccn2)s1	0.4
CCN(CC)CCNC(=O)Cn1nc(-c2ccccc2)c2ccccc2c1=O	i
CCn1c(C)nc2c(=O)oc3ccccc3c21	0.1
O=C(CNS(=O)(=O)c1ccc(F)cc1)Nc1ccc(C(F)(F)F)cc1	0.3
CCOc1nc(S(=O)(=O)c2ccc(C)cc2)c(Cl)s1	1.1
[O-][n+]1onc2c1CCc1c-2nn(-c2ccccc2Cl)[n+]1[O-]	20
CC(=O)Nc1ccc(C(=O)NNC(=O)CCc2ccccc2)cc1	0.6
CCOC(=O)Nc1sc2c(c1C#N)CCC(C)C2 (stereo unspecified)	1.9
COc1cc(S(=O)(=O)NC2CCCCC2)ccc1Cl	i
CC(=O)N1CCCc2cc(S(=O)(=O)NC(C(=O)NCc3ccc(C)cc3)C(C)C)ccc21 (stereo unspecified)	0.5
COC(=O)c1c(NC(=O)C2(C)Cc3ccccc3C(=O)O2)sc2c1CCCC2 (stereo unspecified)	6.1
CCN(CCCNC(=O)CNC(=O)Cn1cnc2ccccc2c1=O)c1cccc(C)c1	i
O=C(CSc1ncc(-c2ccc(F)cc2)n1Cc1ccco1)Nc1nccs1	i
Cc1cc(Cl)cc(C)c1OCCCCN1CCOCC1	i
CCN(CC)CCCNC(=O)c1cc(-c2ccc(Cl)c(Cl)c2)on1	i
Cc1cc(C)cc(N(C(C)C(=O)NC2CCCC2)S(C)(=O)=O)c1 (stereo unspecified)	0.1
CCC(=O)c1c[nH]c(C(=O)NCCCn2ccnc2)c1	0.6
CC1(C)CC2CC(C)(CN2C(=O)COC(=O)c2ccc(Cl)c(N)c2)C1 (stereo unspecified)	i
CN(C(=O)CSc1nnc(NC2CCCCC2)s1)C1CCS(=O)(=O)C1 (stereo unspecified)	i
CCN(CC)c1ccc(NC(=O)CN2CCN(c3ccc(F)cc3)CC2)cc1	i
CC(C)OC(=O)CSc1ncnc2c1cnn2-c1ccccc1	0.5
COC(=O)c1c(C)nn(-c2ccccc2)c1-n1cccc1	0.2
O=[N+]([O-])c1ccc(/C=N/Nc2nc(N3CCCCC3)nc(N3CCCCC3)n2)o1	0.4
O=C(C1CCCN(S(=O)(=O)c2cccc3nsnc23)C1)N1CC=C(c2ccccc2)CC1 (stereo unspecified)	0.8
CC1CC(Nc2ccccc2)=CC(=O)O1 (stereo unspecified)	i
N#Cc1c(N)n[nH]c1-c1cc2c([nH]1)CCCC2	0.2
Cc1ccc(S(=O)(=O)N2c3ccccc3OCC2c2ccccc2)cc1 (stereo unspecified)	0.4
Cc1ccc(NC(=O)N/C=C/c2ccco2)cc1C	i
CCCCNCc1ccc(SC)cc1	0.4
COc1ccccc1-n1c(SCC(=O)NC(C)(C)C)nc(O)cc1=O	1.2
O=C(CN(Cc1ccco1)C(=O)CNS(=O)(=O)c1ccccc1)NCc1ccccc1	1.2
COc1nc(N(c2ccccc2)c2ccccc2)nc(-n2ccnc2)n1	1.7
C=CCn1c(SCC2=C(C(=O)OCC)C(C)NC(=O)N2)nnc1C1CCCCC1 (stereo unspecified)	0.4
COc1ccccc1N1CCN(S(=O)(=O)c2cc(C)sc2C)CC1	2.8
CCOC(=O)c1nnc2cc(-c3ccccc3)nn2c1C	i
CCOC(=O)N1CCN(S(=O)(=O)c2cc(Br)cc3c2N(C(C)=O)C(C)C3)CC1 (stereo unspecified)	0.1
O=C(NCc1cccnc1)c1cccc2c1C(=O)N(C1CCCCC1)C2	i
Cc1cc2cc(CN(CCCO)S(=O)(=O)c3cccc4nsnc34)c(=O)[nH]c2cc1C	0.5
CN(CC(=O)NCc1ccccn1)S(=O)(=O)c1ccc(Cl)cc1	i
C/C(=C\c1ccc(N(C)C)cc1)[N+](=O)[O-]	i
O=S(=O)(NC1CCN(Cc2ccccc2)CC1)c1cccc(S(=O)(=O)N2CCOCC2)c1	i
Cc1ccccc1NC(=S)N(CCN(C)C)C(C)c1ccccn1 (stereo unspecified)	i
Cc1cccc(N2C(=O)CC(N3CCN(Cc4ccc(Cl)cc4)CC3)C2=O)c1 (stereo unspecified)	i
COc1ccc(CC(=S)N2CCOCC2)cc1OC	i
O=P(c1ccc2c(c1)OCCO2)(N1CCOCC1)N1CCOCC1	0.1

Next records.
SMILES	H5N1 antiviral
COc1ccc(-c2cc3nc(-c4ccccc4)cc(N4CCC5(CC4)OCCO5)n3n2)cc1	0.7
CCCCCOC(=O)C1=C(C)NC(=O)NC1c1ccccc1OCC (stereo unspecified)	i
CCOC(=O)C1CCN(C(=O)CSc2ccccc2)CC1	i
C=C(C)Cn1c(Sc2nc3ccccc3[nH]2)nc2c1c(=O)[nH]c(=O)n2C	1.0
C=CCn1c(SCC(=O)Nc2ncc(Cc3cc(Cl)ccc3Cl)s2)nnc1-c1ccncc1	0.3
O=C(c1ccncc1)N1CCN(C(=O)c2cccc3ccccc23)CC1	0.3
CCC(=O)Nc1ccc(NC(=O)CN2CCCC(C)C2)c(Cl)c1 (stereo unspecified)	i
O=c1[nH]c(CN(CCO)CCO)nc2c1C1(CCCCC1)Cc1ccccc1-2	0.5
CC12CCC(C(=O)Nc3ccccc3)(C/C1=N\O)C2(C)C (stereo unspecified)	1.3
CCN1CC=C2C(C1)C(c1ccc(Cl)s1)C(C#N)=C(N)C2(C#N)C#N (stereo unspecified)	2.8
Cn1cccc1CN1CCN(C(=O)COc2ccccc2)CC1	1.6
CC1C2C(C)N(C)C(=O)N(C)C2N(C)C(=O)N1C (stereo unspecified)	i
COc1ccc(C(=O)N2CCN=C2SC)cc1OC	i
COc1cccc(-c2nc3ccccc3c(=O)o2)c1	0.4
O=C(COc1ccc(Cl)cc1)N/N=C/CCc1ccccc1	i
CCN(CC)P(=O)(NC(=O)C(Cl)(Cl)Cl)N(CC)CC.[Cl-].[Cl-].[Cl-].[Nd+3]	0.9
CCC(=O)Nc1c2c(nc3c1CCC3)CCCC2	0.8
O=C(NC1CCCCCC1)C1CC(=O)N(Cc2ccccc2)C1 (stereo unspecified)	i
COc1ccccc1N(C(=O)NCc1ccccc1)C1=NCC(C)S1 (stereo unspecified)	2.4
O=c1[nH]c2cc3c(cc2cc1C(c1nnnn1C1CCCC1)N1CCSCC1)OCCO3 (stereo unspecified)	i
COC(=O)C1C2CCC(C2)C1C(=O)OCC(=O)c1ccccc1 (stereo unspecified)	i
COc1ccc(-n2c(Cc3cccn3C)nnc2SCC(=O)Nc2ccc(C)cc2C)cc1	i
COC(=O)C1=C(N)Oc2c(c(=O)oc3ccccc23)[C@]12C(=O)N(C)c1ccccc12	0.5
CN(CCc1ccccn1)C(=O)CCNC(=O)Cn1cnc2ccccc2c1=O	i
COc1nc(OC)nc(N2CCC(C(=O)NCC3CCCCC3)CC2)n1	i
CCCc1cc(=O)oc2cc(OCC(=O)N(C)C)c(Cl)cc12	0.1
CCn1nc(NC(=O)c2cccnc2)c2cc3ccccc3nc21	0.2
CC1CCN(C(=O)CSc2nnc(-c3cc4ccccc4cc3O)n2Cc2ccco2)CC1	i
Cc1ccc(S(=O)(=O)/C(C#N)=C/c2c(N3CCC(C(N)=O)CC3)nc3ccccn3c2=O)cc1	i
O=C(Nc1cc(Cl)cc(Cl)c1)c1cnn2cccnc12	i
COc1ccc(CC(=O)NC2CCN(Cc3nnnn3C(C)(C)C)CC2)cc1OC	i
COc1ccc(C(=O)NCCc2c[nH]c3ccccc23)cc1S(=O)(=O)N1CCOCC1	i
CCOc1ccc(NC(=O)CSc2nnc(C34CC5CC(CC(C5)C3)C4)n2C)cc1	0.2
CCOc1ccccc1OCc1nn2c(COc3ccccc3)nnc2s1	i
CC(O)C(=O)N/N=C/c1cccc(Cl)c1Cl (stereo unspecified)	i
Cc1cc(-c2[nH]nc3c2C(c2ccsc2)C(C#N)=C(N)O3)c(C)s1 (stereo unspecified)	i
COc1ccc(C(=O)Oc2cccnc2)cc1OC	0.2
CCCCCC(=O)Nc1c(-c2cccs2)c(=O)c2ccccc2n1C	0.4
C=CCn1c(NCc2ccc3c(c2)OCO3)nc2ccccc21	i
CC1CC(=O)N(Cc2ccccc2)c2ccccc2N1C=O (stereo unspecified)	1.0
O=C(N/N=C/c1cccc(Oc2ccc([N+](=O)[O-])cc2[N+](=O)[O-])c1)c1cncc(Br)c1	i
CCOC(=O)c1c(N)sc2c1C1CCN2CC1	0.6
O=C(Cn1cc([N+](=O)[O-])cn1)Nc1ccn(Cc2c(F)c(F)cc(F)c2F)n1	0.1
COc1ccc(-c2[nH]nc3c2C(c2ccsc2)C(C#N)=C(N)O3)cc1 (stereo unspecified)	0.5
COc1ccc(OC)c(NC(=O)C2CCCN2C(=O)C2CCC(C)CC2)c1 (stereo unspecified)	1.0
Cn1c(=O)[nH]c(=O)c2c1nc(N1CCOCC1)n2CCCSc1ncccn1	1.6
Cc1ccc(CSCCNC(=O)/C=C/c2ccc(Cl)cc2)cc1	i
FC(F)(F)c1cccc(NC(=S)NCc2ccccc2)c1	i
CC1CCCN(C(=O)CSc2nnc(-c3c[nH]c4ccccc34)o2)C1 (stereo unspecified)	i
CSc1ccccc1-c1nnc(-c2ccc(Cl)cc2Cl)o1	1.1
Cc1ccc(NC(=O)C(SCC(=O)O)c2ccccc2)cc1C (stereo unspecified)	0.5
CCOC(=O)Nc1ccc2c(c1)N(C(=O)N(C)C)c1ccccc1CC2	1.4
COc1ccc(C(=O)CN(C(=O)c2ccc(Cl)cc2)N2C(=O)c3ccccc3C2=O)cc1	i
CSc1nsc(SC)c1NC(=O)OCC1CCCO1 (stereo unspecified)	0.2
